Screening results from PubChem.
LANA-nucl inh: inhibitors of KSHV LANA binding to nucleosomes; AID 720717; actives 0.3% (n = 51,000); z-score (test concentration not listed); FITC-LANA1-23 / chicken nucleosome fluorescence polarization; active compounds read low;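 active = both repeat wells score below -2 in polarization z-score versus plate sample wells, excluding overly bright wells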;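 note: 100 nL library stock added to about 30 µL; numbers are from one replicate; some results filed as inactive read as strong as hits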
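System – purified chicken nucleosomes with FITC-labelled LANA N-terminal peptide (1-23) · Amount – 240 nM purified chicken nucleosomes (480 nM peptide binding sites), final · Also added – 50 nM FITC-LANA1-23 probe · Medium – TEN-BT buffer, pH 7.5 · Incubation – compound with peptide–nucleosome mix 10–45 min at room temperature · Detection – fluorescence polarization, ex 480 nm, em 535 nm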
BasE inh: blocks the Acinetobacter baumannii siderophore enzyme BasE. purified BasE, fluorescence polarization binding displacement. inhibition, % (concentration not given with the values). actives 0.1% (n = 84,000);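 active = both replicates above 25% with normal brightness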;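 note: 0% = negative plate control signal and 100% = positive plate control signal; stock transfer was 100 nL into about 30 µL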
Numbers without * were called inactive; . = not tested or not shown. Some of the compounds tested; count on the stated rates, not on these rows.

Sequence of screens – LANA-nucl inh	BasE inh
O=C(NCCCN1CCCC1)C1CCN(c2nc3cccnc3s2)CC1
→ -1.1	-1.6
Cc1ccc(C)c(-n2c(Cc3cc(=O)[nH]c(=O)[nH]3)nnc2SCC(=O)Nc2nnc(C)s2)c1
→ 0.061	-1.3
CC(C)(C)C1CCC(OC(=O)c2cccnc2)CC1 (stereo not given)
→ .	1.2
O=C(NCCSc1ccc(Cl)cc1)c1ccco1
→ -0.33	-0.2
O=C(C1CC1)N1N=C2/C(=C/c3ccc4c(c3)OCO4)CCCC2C1c1ccc2c(c1)OCO2 (stereo not given)
→ .	-1.5
CCc1[nH]nc(C(=O)O)c1C
→ 0.33	2.7
O=S(=O)(NCC1CCCCC1)c1ccc(-n2cnnn2)cc1
→ -0.6	0.8
Cc1cc(C)c(C#N)c(SCC(=O)NCCc2c[nH]c3ccccc23)n1
→ .	-2.6
CC(C)P(=O)(c1c(F)c(F)nc(F)c1F)C(C)C
→ 0.012	3.0
O=c1c2ccccc2nnn1CSc1nnc(COc2ccccc2Cl)o1
→ .	0.6
O=C(O)CN(CC(=O)Nc1ccc2c(c1)OCCCO2)Cc1ccccc1
→ 0.86	-0.2
CCOC(=O)c1cnn2c(C(F)F)cc(-c3ccc(C)cc3)nc12
→ -1	3.2
OCC(O)CN=Cc1c(O)[nH]c2ccccc12 (stereo not given)
→ 0.93	2.6
CC(C(=O)Oc1ccc(C#N)cc1)N1C(=O)c2ccccc2C1=O (stereo not given)
→ .	-0.5
O=C(NCCN1C(=O)S/C(=C\c2cccnc2)C1=O)c1cc(S(=O)(=O)N2CCOCC2)ccc1F
→ .	-0.2
CN1C2=C(C(=O)CCC2)C(c2ccc(O)c(Cl)c2)C2=C1CCCC2=O
→ -0.24	6.2
N#CCCn1cc(C(=O)N2CCCCC2)c(-c2ccccc2)n1
→ .	-1.1
CSc1nc(-c2ccccc2)nc2[nH]ccc(=O)c12
→ 2.7	-4.3
COCCNC(=O)c1ccc2c(c1)CCN2S(=O)(=O)c1ccc(C)cc1
→ 1.6	-6.1
COc1cc(NC(=O)c2ccccc2)c(OC)cc1NC(=O)CN1CCCCC1
→ -0.56	1.1
Cc1ccn(C(=O)c2ccc(Br)cc2)n1
→ 1.2	0.1
Cc1cc(NC(=O)Cn2cc(S(=O)(=O)N(Cc3ccccc3)Cc3ccccc3)ccc2=O)no1
→ .	1.0
CCCCn1c(CCNC=O)nc2ccccc21
→ -0.0085	0.7
CCCCCCN1C(=O)c2ccc(Br)cc2C1=O
→ 0.47	-1.1
O=C(Nc1ccsc1C(=O)N1CCOCC1)c1ccccc1
→ -0.32	.
CCN(CC)C(=O)c1c(NC(=O)c2ccco2)sc2c1CCCCC2
→ -0.94	2.6
CC1CCc2c(sc(NC(=O)COn3nnc4ccccc43)c2C(N)=O)C1 (stereo not given)
→ .	1.4
Cc1cc(C(=O)NCCC2=CCCCC2)c(C)o1
→ -1.5	2.6
CCC(O)c1nc2ccccc2n1CC1CCCCC1 (stereo not given)
→ 0.87	1.1
CN1CCN(CC(=O)N2c3ccccc3Sc3ccccc32)CC1
→ 0.072	.
C1CNCC(CN2CCCC2)C1 (stereo not given)
→ 0.67	-4.5
COc1ccc(S(=O)(=O)N2CCN(Cc3cccc(F)c3)CC2)c(OC)c1
→ 0.66	-1.3
CCOc1cc2[nH]c(=S)n(CCC(OCC)OCC)c(=O)c2cc1OCC
→ 0.39	-0.1
Cc1cc(Br)c2c3c(c(N)c(=O)[nH]c13)-c1ccccc1C2=O
→ -1.1	13
CSc1nnc2[nH]c(=O)cc(N)n12
→ .	0.7
CNc1nc(Oc2ccc(C(=O)OC)cc2)nc(SC)n1
→ -0.2	0.9
CC(C)(C)NC(=O)CCC1=NS(=O)(=O)c2ccccc2N1
→ 3.3	-2.6
COC(=O)c1cc(S(=O)(=O)N2CCSC2)oc1C
→ .	1.3
Cc1cc(C(=O)COC(=O)Cn2cnnn2)c(C)n1-c1cccc(S(=O)(=O)N2CCOCC2)c1
→ .	0.1
c1ccc(CSc2snnc2-c2ccccc2)cc1
→ -0.32	.
NC(=O)c1cc(S(=O)(=O)NCc2cccs2)cs1
→ 0.42	1.2
Cc1nn(C(=O)C(C)N2C(=O)c3ccccc3C2=O)c(C)c1Br (stereo not given)
→ -0.37	1.9
O=C(CC12CC3CC(CC(C3)C1)C2)NCC(=O)OCc1nnc(-c2ccc(Br)cc2)o1
→ .	-0.6
Cc1ccc(CNC(=O)C2CCCN(S(=O)(=O)c3c(C)[nH]c(=O)[nH]c3=O)C2)cc1 (stereo not given)
→ 0.25	-1.8
COc1ccc(OCC(O)CNC(=O)Nc2ccccc2)cc1 (stereo not given)
→ .	1.0
CN1/C(=C\C(=O)COC(=O)Cc2cn3ccsc3n2)C(C)(C)c2ccccc21
→ .	-3.3
CC(C)c1ccc(/C=C/C(=O)O)cc1
→ -1.2	1.4
CC(=O)Nc1cc(C(F)(F)F)ccc1N1CCOCC1
→ 2.6	-2.3
CCOc1ccccc1NC(=O)CSc1nc2cnn(C)c2c(=O)n1Cc1ccccc1
→ .	0.8
Cc1ccc2c(c1)N(C(=O)CN1CCCN(Cc3ccccc3)S1(=O)=O)CCO2
→ 0.33	0.2
Nc1c(C(=O)Nc2ccccc2)nnn1Cc1ccccc1
→ -1.9	1.1
O=C(NCc1ccc(-c2nc3ccccc3o2)cc1)c1ccccc1Br
→ -0.2	-0.2
CCNc1ccc(S(=O)(=O)C(F)(F)F)cc1NCC(=O)N1CCCc2ccccc21
→ .	-21
Cc1cc(C)cc(NC(=O)c2c(C)noc2C)c1
→ .	-0.4
CC(C)c1ccc(C(=O)O)c(C(C)C)c1
→ .	1.1
N#C/C(=C/c1cn(CC(=O)O)c2ccccc12)c1ccc(C(=O)O)cc1
→ 1.5	-1.4
CC(C)CCNC(=O)Nc1ccc2c(c1)N(C)C(=O)CS2
→ 0.16	-3.0
Cc1ccc(O)c(C(=O)c2cc(C#N)c(=O)n(C3CCCCC3)c2)c1
→ .	0.2
Cc1ccc2c(c1)c1nnc(SCC(=O)Nc3ccc(N(C)C)cc3)nc1n2CC(=O)O
→ 0.33	-0.9
O=C(c1nsnc1-c1ccccc1O)N1CCCC1
→ .	0.3

(list continues)
Sequence of screens – LANA-nucl inh	BasE inh
C1CCCN(c2nc3nonc3nc2N2CCCCCC2)CC1
→ -0.2	0.0
CCN(CC)C(=S)Nc1ccc(OC)cc1
→ 0.34	2.0
CC(C)c1ccc(NC(=O)N2CCC(N)CC2)cc1
→ -0.76	2.6
N#Cc1c(NC(=O)COC(=O)c2cccs2)sc2c1CCCCC2
→ .	1.0
Cc1nc2scc(C)n2c(=O)c1S(=O)(=O)N1CCC(C)CC1
→ 0.59	-0.5
COc1ccc(-c2cc(=O)oc3cc4occ(-c5cccc(OC)c5)c4cc23)cc1
→ .	2.3
Cc1ccc2nc(-c3ccccn3)oc2c1
→ -0.14	-2.4
Nc1nncn1C(=O)COc1ccc(Cl)cc1
→ -0.1	-1.0
Cc1ccc(NCn2c(=O)oc3ccccc32)cc1
→ .	0.8
O=S1(=O)CCC(S(=O)(=O)N2CCCC2)C1 (stereo not given)
→ -0.47	1.3
COC(=O)C1=C(C)NC(=O)CC1c1ccccc1C (stereo not given)
→ .	-0.5
O=C(NCCc1ccc(Cl)cc1)c1ccc(-n2cnnn2)cc1
→ .	-7.3
O=C1CC(c2ccccc2)Sc2nc3ccccc3n21 (stereo not given)
→ 0.0085	0.0
Cc1cc(C)c(NC(=O)CNC2CC(C)(C)NC(C)(C)C2)c(C)c1
→ -0.029	1.3
CC(CN1CCCC1)OC(=O)c1ccc(F)cc1 (stereo not given)
→ -0.56	0.7
CCOC(=O)C1=C(C)Nc2ccccc2[S@]1=O
→ 1.7	.
CSC(=NC(C)(C)C)N/N=C/c1cc(Cl)cc(Cl)c1O
→ -0.27	2.8
O=C(C1CCN(S(=O)(=O)c2ccccc2F)CC1)N(CC1CCCO1)c1nc2ccccc2s1 (stereo not given)
→ .	1.8
O=C(CSc1nnc(-c2ccco2)n1Cc1ccccc1)c1ccccc1
→ .	-10
Cc1ccc2ncnc(NC3CCCCC3)c2c1
→ -0.28	-1.0

Shown in markdown: 5 of the compounds above.
| molecule | LANA-nucl inh | BasE inh |
| --- | --- | --- |
| Cc1cc(C)c(NC(=O)CNC2CC(C)(C)NC(C)(C)C2)c(C)c1 | -0.029 | 1.3 |
| O=C(C1CCN(S(=O)(=O)c2ccccc2F)CC1)N(CC1CCCO1)c1nc2ccccc2s1 (stereo not given) | . | 1.8 |
| N#Cc1c(NC(=O)COC(=O)c2cccs2)sc2c1CCCCC2 | . | 1.0 |
| CSC(=NC(C)(C)C)N/N=C/c1cc(Cl)cc(Cl)c1O | -0.27 | 2.8 |
| O=C1CC(c2ccccc2)Sc2nc3ccccc3n21 (stereo not given) | 0.0085 | 0.0 |

(listing goes on)
Sequence of screens – LANA-nucl inh	BasE inh
COc1cc2c(cc1NC(=O)C(C)N1CCc3cc(OC)c(OC)cc3C1)oc1ccccc12 (stereo not given)
→ .	-0.5
CC1(C)OC(=O)C(=Cc2ccoc2)C(=O)O1
→ .	-0.1
O=C(CN1CCN(C2c3ccccc3-c3ccccc32)CC1)c1ccc2c(c1)OCO2
→ 0.0085	0.8
Cc1ccc(S(=O)(=O)c2cnc3ccccc3c2N2CCC3(CC2)OCCO3)cc1C
→ -0.46	0.5
Cc1cc(C(F)(F)F)n[nH]1
→ -0.93	1.0
C#CCOC(=O)Nc1ccc(OC)nc1
→ 0.32	1.9
Cn1cccc1Cc1nnc2n1CCCCC2
→ .	-0.5
Cc1ccc2c(c1)c1c(n2C)C(NC(N)=O)CCC1 (stereo not given)
→ 0.41	1.9
O=C(Cn1nc(-c2ccc(Cl)cc2)c2ccccc2c1=O)N1CCCC1
→ 1.3	-2.2
COCc1cc(=O)[nH]c(Nc2nc3ccccc3o2)n1
→ -1.4	0.2
CN(C)CCNc1nc(S(=O)(=O)c2ccccc2)c(Cl)s1
→ .	-0.5
O=C(NCCNc1ccc(C(F)(F)F)cn1)Nc1ccccc1Cl
→ 0.41	2.2
CC(C)=CCOc1ccc2c3c(c(=O)oc2c1)CCC3
→ 0.017	2.9
COC(=O)c1cc(-c2cocc2C=C(C#N)C#N)ccc1Cl
→ -4.7*	6.9
CCCc1cc(=O)[nH]c(/N=C(\N)Nc2cccc(C(F)(F)F)c2)n1
→ .	3.5
N#CC(=C1SCCCCS1)S(=O)(=O)c1ccc(Cl)cc1
→ .	1.8
CCOC(=O)c1cccc(N(C(=O)Cn2nnc3ccccc32)C(C(=O)NCC2CCCO2)c2nc3ccccc3n2C)c1 (stereo not given)
→ 0.54	0.6
CCN(c1cccc(C)c1)S(=O)(=O)c1ccc2c(c1)C(=C(C)C)C(=O)N2
→ .	-2.4
CC1(C)Cc2nc3sc4c(=O)n(CC(=O)NCc5ccco5)cnc4c3cc2CO1
→ 0.24	2.5
CC1CC(C)CN(C(=O)COC(=O)/C=C/c2cccc(F)c2)C1 (stereo not given)
→ .	1.6
Cc1ccc(S(=O)(=O)NC(=O)NC2CCCc3ccccc32)cc1 (stereo not given)
→ .	2.2
O=C1C=C(c2ccccc2)C(=O)c2ccccc21
→ 0.46	1.8
O=C(O)c1ccccc1Nc1ccnc(N2CCCCC2)n1
→ .	0.7
O=C(N/N=C/c1c(Cl)nc2ccccn12)c1ccncc1
→ .	4.6
CCOC(=O)CSc1nc2cc(C(=O)OC)ccc2c(=O)n1CCc1ccc(S(N)(=O)=O)cc1
→ 0.14	0.2
O=C(CN1CCc2ccccc21)Nc1cccc(C(F)(F)F)c1
→ .	-0.9
O=C(c1cc2ccccc2o1)N(C1CC1)C1CCS(=O)(=O)C1 (stereo not given)
→ .	-1.1
Cc1oc(-c2ccccc2)nc1CS(=O)CC(=O)O (stereo not given)
→ -0.88	2.6
O=c1[nH]c(SCc2ccccc2)nc(O)c1Cc1ccccc1
→ 0.36	-2.2
O=C1CC(SCCc2nc3ccccc3[nH]2)C(=O)N1c1ccc(F)cc1 (stereo not given)
→ 0.6	-2.3
Cc1ccc(NC(=S)N2CCCC(c3ccccc3)=N2)cc1
→ .	0.8
CC(NC(=O)CS(=O)(=O)c1ccccc1)c1ccccc1 (stereo not given)
→ -1.1	-0.5
O=C(COc1cccc2cccnc12)c1ccccc1
→ .	-3.3
NC(=O)C1CCN(C(c2ccccc2)c2sc3ncnn3c2O)CC1 (stereo not given)
→ -0.76	-0.3
CSc1nnc(C)n1Cc1ccccc1
→ .	-0.7
CC(=O)Nc1ccc(C(=O)OC2CCCCC2)cc1
→ -0.068	-1.6
Cc1cccc(N2C(=O)CS/C2=N/NC(=O)c2cccc(Cl)c2)c1
→ 0.49	1.2
COc1ccc(OCCN2CCN(S(=O)(=O)c3ccc(Cl)s3)CC2)cc1
→ .	3.0
C=CCn1c(C)cc(C(=O)Cn2c(C)nc3cc4c(cc32)OCCO4)c1C
→ .	0.7
CCOC(=O)c1c(C)oc2ccc(OCC(=O)C(C)(C)C)cc12
→ -0.65	-0.6
COc1ccc2[nH]c(=O)c(C(c3nnnn3Cc3ccccc3)N(C)C3CCCCC3)cc2c1 (stereo not given)
→ 0.38	-0.9
S=C1NC(=S)NC(c2ccc3c(c2)OCO3)N1
→ -0.5	2.4
COc1cccc(N2CCN(Cc3ccsc3)CC2)c1
→ -0.1	-2.3
CNC(=S)Nc1cccc(C(F)(F)F)c1
→ 0.21	0.1
FC(F)Oc1ccc(/C=N/N2CCOCC2)c(OC(F)F)c1
→ .	0.1
CCCCN(Cc1ccccc1)Cc1ccccc1O
→ -0.34	1.2
